MenB inh = blocks the Mycobacterium tuberculosis MenB enzyme. MenB enzyme assay, absorbance read-out; some hits fall short of the stated cut. inhibition, %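 (about 12 µg/mL by stock and volumes)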. hit rate 0.43% among 100,000;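 active = mean of two replicates above 30%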;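 note: 0% = no compound and 100% = wells with inactive enzyme; the first replicate is given; strong numbers were not always called active; inactives centre near -10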
Mtb MbtI inh = inhibitors of Mycobacterium tuberculosis siderophore enzyme MbtI; P9WFX0; purified MbtI enzyme, fluorescence intensity read-out; inhibition, %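 (about 17 µg/mL by stock and volumes)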; hit rate 0.89% among 100,000; AID 493033;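 active = above 50% in both replicates, above 80% if mildly self-fluorescent; inactive = the rest, strongly fluorescent compounds included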;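 note: 0% = mean of negative and 100% = mean of positive controls; one replicate is shown; some compounds called inactive have numbers as strong as hits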
Target sequence (P9WFX0 whole entry, looked up): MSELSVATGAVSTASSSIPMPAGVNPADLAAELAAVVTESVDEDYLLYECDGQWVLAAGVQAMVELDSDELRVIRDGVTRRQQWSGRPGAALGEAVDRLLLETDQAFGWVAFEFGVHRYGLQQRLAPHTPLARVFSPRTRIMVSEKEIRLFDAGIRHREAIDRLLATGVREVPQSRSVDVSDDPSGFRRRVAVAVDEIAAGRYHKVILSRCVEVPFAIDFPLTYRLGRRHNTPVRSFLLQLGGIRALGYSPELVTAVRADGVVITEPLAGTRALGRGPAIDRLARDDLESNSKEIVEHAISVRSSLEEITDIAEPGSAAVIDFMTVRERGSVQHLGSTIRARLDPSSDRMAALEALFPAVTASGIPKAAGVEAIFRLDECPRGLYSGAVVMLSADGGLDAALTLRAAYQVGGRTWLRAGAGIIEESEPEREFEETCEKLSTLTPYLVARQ
PV pol inh = poliovirus RNA polymerase inhibition. poliovirus polymerase elongation, fluorescence polarization; stronger effect = lower value. % elongation, % (compound at 16.7 µg/mL). hit rate 0.66% among 150,000. P03300; in the data active = % elongation below about 90%; note: some results filed as inactive read as strong as hits
Target sequence (P03300 1749-2209 limits assumed): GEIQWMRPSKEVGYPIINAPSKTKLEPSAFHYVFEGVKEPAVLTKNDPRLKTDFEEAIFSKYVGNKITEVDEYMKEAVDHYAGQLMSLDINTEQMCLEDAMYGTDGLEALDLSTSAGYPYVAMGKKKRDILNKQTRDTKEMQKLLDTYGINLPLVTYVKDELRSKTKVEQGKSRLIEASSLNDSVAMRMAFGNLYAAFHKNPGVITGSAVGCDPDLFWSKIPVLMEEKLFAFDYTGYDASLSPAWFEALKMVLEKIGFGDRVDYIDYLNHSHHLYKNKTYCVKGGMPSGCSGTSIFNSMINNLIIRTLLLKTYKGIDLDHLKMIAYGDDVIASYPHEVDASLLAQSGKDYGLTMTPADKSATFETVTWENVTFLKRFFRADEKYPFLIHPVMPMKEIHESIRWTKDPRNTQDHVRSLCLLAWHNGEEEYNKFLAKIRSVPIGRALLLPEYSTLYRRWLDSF
PV pol inh intensity = also measured in PV pol inh; calls as there; % elongation; measured here: total intensity read-out; formula for this scale not given here;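 total fluorescence in place of polarization; lower means less elongation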
* hit, by the source's call; . = no result given; & = joins results of further samples.

SMILES	MenB inh	Mtb MbtI inh	PV pol inh	PV pol inh intensity
C=CCn1c(N)c(C(=O)OCC)c2nc3ccccc3nc21	-71	103	116	153
C/C(=C\C(=O)c1cccnc1)Nc1ccccc1O	60*	27	102	105
CCOC(=O)c1c(NC(=O)Cn2cnc3sccc3c2=O)sc(C)c1CC	-32	21	103	102
COc1ccc(/C=C2/C(=O)N(Cc3ccccc3)N=C2C)cc1	0	36	96	103
Cc1cc(N2CCCCC2)nc2ccc(NC(=O)/C=C/c3ccco3)cc12	-16	5	102	103
CC(C)n1ncc2c(C(=O)NC3CCCCC3)cc(C3CC3)nc21	9	29	103	99
Cc1ccc(C(=O)CC(=O)c2ccccc2O)cc1	-38	-17	100	104
CCOC(=O)C1CCCCN1S(=O)(=O)c1ccc2[nH]c3c(c2c1)CCCC3 (configuration not stated)	0	99	100	101
Cn1ncc(NC(=O)O/N=C/c2ccccc2)c1-n1cccc1	-18	2	101	104
CCCCNC(=O)C1Cc2cc(Cl)ccc2O/C1=N\O (configuration not stated)	5	-1	101	105

Entries of single compounds, quoted from the list. Values in the order: MenB inh, Mtb MbtI inh, PV pol inh, PV pol inh intensity
CCOC(=O)c1c(NC(=O)Cn2cnc3sccc3c2=O)sc(C)c1CC is listed as -32, 21, 103, 102
Cn1ncc(NC(=O)O/N=C/c2ccccc2)c1-n1cccc1 is listed as -18, 2, 101, 104

The listing continues.
SMILES	MenB inh	Mtb MbtI inh	PV pol inh	PV pol inh intensity
COCC(C)NCc1ccc(OC)c(OC)c1 (configuration not stated)	-17	-1	102	102
CCNC(=S)NC(=NC1CCCC1)Nc1nc(C)cc(C)n1	-15	2	101	101
CCC1=C(C(=O)OC)C(c2cc(OC)c(OC)cc2OC)n2ncnc2N1 (configuration not stated)	-10	11	102	99
CCNC(=O)c1c(C)nc2ccccn12	-34	89	103	101
O=C(COc1ncnc2ccc(Br)cc12)N1CCCCC1	-4	-12	103	102
CCCCC[C@H](O)/C=C/[C@H]1C=CC(=O)[C@@H]1CCCCCCC(=O)O	9	-12	100&99	103&102
CCC(=O)N1c2ccc(C)cc2C(OC(=O)c2ccccc2)CC1C (configuration not stated)	-1	-4	101	102
CC(C)c1ccc(S(=O)(=O)N2CCOCC2)cc1	-9	-9	98	95
O=C(O)CCC(=O)Nc1ccc(Br)cc1	-3	-11	99	103
CCOc1ccc(N=C2CSC(=O)N2)cc1	.	-4	103	107
CCOc1cc2c(cc1OCC)C1C(C(=O)N(CC)CC)c3ccccc3C(=O)N1CC2 (configuration not stated)	-20	-4	103	101
Cc1ccccc1CNC(=O)C1CCCN(S(=O)(=O)N(C)C2CCCCC2)C1 (configuration not stated)	-7	-18	101	103
c1cncc(-c2nc(Nc3ccc4c(c3)OCO4)c3ccccc3n2)c1	-13	-8	98	103
N#Cc1ccc(C(N2CCSCC2)N2CCSCC2)cc1	5	-10	106	111
O=C(O)CC(CC(=O)Oc1ccccc1N1CCOCC1)c1ccccc1 (configuration not stated)	8	-12	103	103
CCN(C(=O)CSc1ncnc2c1sc1ccccc12)c1cccc(C)c1	-5	4	102	106
O=c1ccccn1CCOc1ccc(Cl)cc1	-5	.	105	113
O=C(Nc1ccc(Br)cc1)C1CC(=O)N(c2ccccc2)C(=Nc2ccccc2)S1 (configuration not stated)	-26	-8	102	107
CCOc1ccccc1NC(=O)NC1(C(=O)NCc2ccco2)CCCCC1	6	-7	100	102
Cc1ccc(S(=O)(=O)NCC2COc3ccccc3O2)cc1 (configuration not stated)	15	-6	99	100

Arranged by heavy-atom count (low to high): three of the compounds above.
SMILES	MenB inh	Mtb MbtI inh	PV pol inh	PV pol inh intensity
C=CCn1c(N)c(C(=O)OCC)c2nc3ccccc3nc21	-71	103	116	153
O=C(O)CC(CC(=O)Oc1ccccc1N1CCOCC1)c1ccccc1 (configuration not stated)	8	-12	103	103
O=C(Nc1ccc(Br)cc1)C1CC(=O)N(c2ccccc2)C(=Nc2ccccc2)S1 (configuration not stated)	-26	-8	102	107

Following part:
SMILES	MenB inh	Mtb MbtI inh	PV pol inh	PV pol inh intensity
O=C(CC12CC3CC(C1)CC(CC(=O)NC1=NCCS1)(C3)C2)NC1=NCCS1	-25	-13	103	102
O=C(CCS(=O)(=O)Cc1ccccc1)Nc1ccc2c(c1)OCCO2	2	0	101	101
CC1=NN(c2nc(-c3ccccc3)cs2)C(=O)/C1=C/c1cccs1	4	-1	101	104
Cn1c(=O)c(-c2noc(-c3cccs3)n2)cn(-c2ccccc2)c1=O	-11	-14	103	107
Cc1ccc2c(c1)N(S(=O)(=O)c1cc3[nH]c(=O)c(=O)[nH]c3cc1C)CCO2	-3	-45	98	102
COc1ccc2nc(NC(=O)CN(c3ccc(C)cc3)S(=O)(=O)c3c(C)noc3C)sc2c1	-64	5	104	105
O=C(O)CCC(=O)c1cccnc1	-3	-6	101	100
O=C(Nc1ccccc1)C1CCN(C(=O)/C=C/c2cn(Cc3ccccc3)nn2)CC1	-33	-14	102	113
CCNC(=O)c1ncoc1-c1ccc(C)cc1	-24	47	102	102
Cc1ccc(S(=O)(=O)N2CN(c3ccccc3)c3nc4ccccc4nc32)cc1	-5	3	104	100
COc1cc2c(cc1OC)C(C(=O)NCCN(C)C)C(c1cccs1)N(C)C2=O (configuration not stated)	-17	3	100	103
Cc1ccc(NC(=O)CSc2nc(-c3ccc4c(c3)OCO4)cn2-c2cccc(Cl)c2)cc1C	-15	21	104	105
FC(F)(F)c1ccc(-c2noc(Cc3ccccc3)n2)cc1	-23	-3	100	102
N#CC(C#N)=C(NC12CC3CC(CC(C3)C1)C2)C(F)(F)F	-20	.	114	117
COc1cc2c(=O)n(Cc3ccccc3Cl)c(=O)n(CC(=O)N3CC(C)CC(C)C3)c2cc1OC (configuration not stated)	-19	6	102	103
Nc1ccc2nc(CCc3ccccc3)[nH]c2c1	10	16	103	103
CCOC(=S)NC(=O)c1ccccc1	.	-5	103	105
O=C(CSc1ccc2ccccc2c1)Nc1ncccn1	.	6	101	101
CC(C)(C)c1cc(C(=O)CN2CCCCC2)cc(C(C)(C)C)c1O	15	4	101	102
O=C1CC(Sc2ccc3ccccc3c2)C2COC1O2 (configuration not stated)	-59	.	84*	84*
Cc1nc(NC(=O)CN2CCN(Cc3ccc(F)cc3)CC2)sc1C(=O)N(C)C	-15	-11	103	106
CSc1c(CC(=O)Nc2ccccc2)n(Cc2ccccc2)c2ccccc12	-10	.	102	104
CCOC(=O)c1sc2nc(N3CCCCC3)c3c(c2c1N)CC(C)(C)OC3	-14	128	105	106
Cc1ccc(Cn2c(/N=C/c3ccc(N(C)C)cc3)nc3ccccc32)cc1	-9	6	108	105
Cc1cc(C)cc(C(=O)N2CCN=C2c2ccccc2)c1	-9	0	106	102
O=C(NCC1CCCO1)c1ccc2c(c1)S(=O)(=O)c1ccccc1C2=O (configuration not stated)	-22	-2	105	107
CCN(CC)c1ccc(N=c2ccc3ccccc3n2C)cc1	-2	23	101	100
CCNC(=O)NC1CCN(c2cc(C)nc3ncnn23)CC1	-2	4	100	101
O=C(Nc1ccc2nc(-c3ccccc3)[nH]c2c1)c1ccco1	-61	28	105	105
COc1cc(C(=O)NC(=S)N2CCCCCC2)cc(OC)c1OC	-44	4	104	109
Nc1ccc(CCc2nc3ccccc3[nH]2)cc1	-25	-2	102	97
CC1(C)CC(=O)/C(=C/c2ccco2)CO1	-24	10	97	98
CCOC(=O)c1ccc(-c2ccc(/C=C3/C(=O)Nc4ccccc43)o2)cc1	5	1	95	118
Cc1oc2nc[nH]c(=O)c2c1C(=O)OC(C(=O)N1CCCCC1)c1ccccc1 (configuration not stated)	6	5	102	107
Cc1cnn2c3c(cnc12)C(=O)c1ccccc1-3	-2	-3	103	104
O=c1ccc(-c2ccc(S(=O)(=O)NCc3ccco3)o2)n[nH]1	14	10	100	102
COc1ccc(NC(=O)CS(=O)CC(=O)Nc2cccc(F)c2)cc1 (configuration not stated)	19	4	100	104
Cc1ccsc1/C=N/NC(=O)CN1CCSCC1	-25	5	100	101
O=C(/C=C/c1ccco1)Nc1ccccc1F	-40	43	98	103
COC(=O)CSc1nnc(-c2ccccc2)n1-c1ccccc1	-8	-6	100	103

Laid out differently: two of the compounds above
Cc1cnn2c3c(cnc12)C(=O)c1ccccc1-3
  MenB inh: -2
  Mtb MbtI inh: -3
  PV pol inh: 103
  PV pol inh intensity: 104

O=c1ccccn1CCOc1ccc(Cl)cc1
  MenB inh: -5
  Mtb MbtI inh: .
  PV pol inh: 105
  PV pol inh intensity: 113

(further entries)
SMILES	MenB inh	Mtb MbtI inh	PV pol inh	PV pol inh intensity
CCC1=Nc2cc(C(=O)NCC(OC)OC)ccc2Sc2ccccc21	-15	-4	102	101
CC(=O)Nc1ccc(/C=N/O)cc1	-2	4	107	108
N#CCCCSc1ncccc1C(=O)O	2	8	103	101
CC(=O)Oc1c(Cl)cc(C(=O)O)cc1Cl	.	51	100	95
CC1(C)CC(=O)C2=C(C1)NC1=C(C(=O)CC(C)(C)C1)C2c1cccc(F)c1	-62	.	107	105
N#Cc1c(C(F)(F)F)cc(=O)[nH]c1SCC(=O)O	-15	-12	99	107
Cc1ccc(S(=O)(=O)NC(=O)Oc2cccc3cccnc23)cc1	-21	0	100	98
COc1ccc(C(=O)Nc2ccccc2C(=O)NCCC(=O)O)cc1	5	16	99	98
CCOc1cc(C(C#N)N2CCCCC2)ccc1OC (configuration not stated)	-8	-1	101	103
N#CC1(NC(=O)CSc2nnc(-c3c[nH]c4ccccc34)o2)CCCCC1	-7	-3	99	104
CCCCS(=O)CSc1nc(-c2cccs2)cc(-c2ccccc2)c1C#N (configuration not stated)	-5	17	100	105
COc1cc(OC)cc(C(=O)NCC(c2ccc(N(C)C)cc2)N2CCc3ccccc32)c1 (configuration not stated)	-11	28	99	102
N#Cc1ccc(Cn2c(=O)c(C#N)c3n(c2=O)CCC3)cc1	-16	10	103	112
COc1ccc(CNC(=O)C(OC(=O)c2cc3sccc3n2C(C)C)C(C)C)cc1 (configuration not stated)	-61	11	103	104
N#CC(C(=O)Nc1ccc(Cl)cc1)C(=O)c1cccs1 (configuration not stated)	2	26	98	92
COC(=O)c1ccc(Cn2cnc3c(cnn3-c3ccc(F)cc3)c2=O)o1	-26	10	97	99
CCc1ccc(NC(=O)CS(=O)CC(=O)Nc2ccc(F)cc2F)cc1 (configuration not stated)	-28	-5	104	105
Cc1cc(N2CCCC2)ccc1/C=C/C1=CCN(C)CC1	11	89	64*	12*
CC1CCCN(C(=S)NCc2ccccc2)C1 (configuration not stated)	-7	-10	103	107
O=c1c2ccccc2[nH]c(=S)n1CCc1ccccc1	-29	1	101	95

Copied from the entries so far for reference:
SMILES	MenB inh	Mtb MbtI inh	PV pol inh	PV pol inh intensity
CCCCS(=O)CSc1nc(-c2cccs2)cc(-c2ccccc2)c1C#N (configuration not stated)	-5	17	100	105
COc1cc(OC)cc(C(=O)NCC(c2ccc(N(C)C)cc2)N2CCc3ccccc32)c1 (configuration not stated)	-11	28	99	102
N#Cc1ccc(Cn2c(=O)c(C#N)c3n(c2=O)CCC3)cc1	-16	10	103	112

Next structures
SMILES	MenB inh	Mtb MbtI inh	PV pol inh	PV pol inh intensity
Nc1cc2ccccc2cc1C(=O)O	-15	6	52*	67*
O=C(O)c1ccc(NC(NC(=O)c2ccco2)C(=O)c2ccccc2)cc1 (configuration not stated)	-21	1	100	102
COc1ccc(O)c(C=Nc2ccc3c(c2)OCO3)c1	-90	-3	102	104
CCN(CC)c1ccc(NC(=O)C(C)(C)C)cc1	3	3	101	103
O=C(c1ccco1)N1CCN(C(=O)C2CCN(c3nc4ccccc4n3Cc3ccc(F)cc3)CC2)CC1	-18	7	101	102
Cn1ccsc1=NC(=O)/C=C/c1ccccc1F	3	20	104	97
CCOC(=O)c1c(S(=O)(=O)N(C)c2ccc(C)cc2)c(C)n(C)c1C	11	-14	101	103
Cc1ccc(N2C(=O)C3C4C=CC(CNC(=O)OCc5ccccc5)(O4)C3C2=O)cc1 (configuration not stated)	34	8	101	104
COC(=O)c1sccc1N	4	-1	104	104
Cn1c(=O)n(Cc2ccc(Cl)cc2)c2ccccc21	9	1	100	102
Cc1cc(C)c(NC(=O)c2cn3c4c(c(N5CCN(C)CC5)c(F)cc4c2=O)OCC3C)c(C)c1 (configuration not stated)	-7	1	99	109
N#Cc1ccccc1NC(=O)COC(=O)c1ccccc1	.	-11	101	98
O=C(NC1CC1)c1cc(S(=O)(=O)N2CCCCC2)ccc1N1CCOCC1	-26	15	104	89
CSCCC(=O)Nc1cc(S(C)(=O)=O)ccc1Cl	-24	-13	104	105
O=C(NCc1cccnc1)c1cnn2c(C(F)F)cc(-c3ccccc3)nc12	-20	75	101	104
CCC(CC)C(=O)Nc1cccc(C(=O)NC(C)(C)C)c1	10	-3	103	103
CC(C)(C)c1ccc(OCCC(=O)Nc2ccc(N3CCOCC3)cc2)cc1	.	1	101	103
CNC(=O)CN(c1ccccc1)S(=O)(=O)c1ccc(OC)cc1	0	-9	98	103
O/N=C/c1ccc2ccccc2c1	2	.	106	107
CN1CCSc2ccc(C(=O)NCc3ccc4c(c3)OCO4)cc21	-8	118	101	100
CC1C=CCC2C(=O)N(c3cccc(O)c3)C(=O)C12 (configuration not stated)	-6	0	103	103
COc1ccc(-c2noc(CCC(=O)NC(C)C)n2)cc1OC	0	18	101	103
O=CN1CCN(C(=O)c2ccccc2)CC1	-4	.	104	113
O=C(Cc1ccccc1)Nc1ccccc1CO	-20	4	99	101
COC(=O)CSc1ncnc2c1cnn2-c1ccccc1	-34	-20	105	104
O=C1/C(=C/c2ccccc2)Oc2c1ccc(O)c2CN1CCOCC1	-224	26	101	124

Source: PubChem (ICCB-Longwood Screening Facility, Harvard Medical School)
